Screening results: PubChem, National Center for Advancing Translational Sciences (NCATS)
N370S GC mod: qHTS Assay for Inhibitors and Activators of N370S glucocerebrosidase as a Potential Chaperone Treatment of Gaucher Disease; Lysosomal acid glucosylceramidase (Homo sapiens), P04062; N370S GC spleen homogenate, 4MU-glucoside fluorescence; Potency, µM (titrated, usually from 59.4 µM), inactives show top-dose activity change, negative = inhibition, usual class: inhibitors; 330,000 tested, 0.092% active;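 note: 0% = full enzyme activity and -100% = no enzyme basal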
TDP1 inh: qHTS Assay for Inhibitors of Tyrosyl-DNA Phosphodiesterase (TDP1). Tyrosyl-DNA phosphodiesterase 1 (Homo sapiens), Q9NUW8. Potency, µM (highest dose often 130 µM), for the others: at the top dose activity change, negative = inhibition, usual class: inhibitors. 350,000 tested, 0.28% active. recombinant TDP1, AlphaScreen DNA substrate cleavage. AID 485290, 2010; note: nearly all actives have a fitted effect of over 40% in size
Target sequence (Q9NUW8 whole entry, looked up): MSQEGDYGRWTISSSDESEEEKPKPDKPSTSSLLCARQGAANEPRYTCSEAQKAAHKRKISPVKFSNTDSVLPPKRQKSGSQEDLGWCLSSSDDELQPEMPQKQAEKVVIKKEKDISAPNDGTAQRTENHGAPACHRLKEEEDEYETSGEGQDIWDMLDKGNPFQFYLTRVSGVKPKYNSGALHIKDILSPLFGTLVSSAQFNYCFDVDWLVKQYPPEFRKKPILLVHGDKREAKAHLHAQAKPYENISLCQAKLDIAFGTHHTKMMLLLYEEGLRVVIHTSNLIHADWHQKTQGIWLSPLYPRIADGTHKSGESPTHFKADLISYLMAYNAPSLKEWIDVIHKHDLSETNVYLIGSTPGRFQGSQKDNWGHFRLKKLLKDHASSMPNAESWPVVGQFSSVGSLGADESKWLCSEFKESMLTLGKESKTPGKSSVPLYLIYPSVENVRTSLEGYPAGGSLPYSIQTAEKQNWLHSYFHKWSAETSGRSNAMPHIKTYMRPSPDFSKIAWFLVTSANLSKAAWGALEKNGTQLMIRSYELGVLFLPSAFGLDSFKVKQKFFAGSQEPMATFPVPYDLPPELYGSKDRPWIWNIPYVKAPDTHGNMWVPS
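Signal: AlphaScreen proximity between streptavidin donor and anti-FITC acceptor beads on intact substrate. Reaction: Tdp1 1 nM, substrate 15 nM final, 5 min RT after 15 min compound preincubation.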
An asterisk follows results filed as active; u = inconclusive; x = not tested or not shown; & = joins results of further samples; [ ] = another dose, or the depositor's remark. Calls come from the whole dose curve; as a rule, active = well fitted curve in the direction sought with a large enough effect; inconclusive = small, poorly fitted or top-dose-only effect, or another doubt; inactive = no such curve, though single readings can be large; an effect the other way counts as inactive or inconclusive. Unless noted, % is set by controls: 0 for no effect and ±100 for the full control effect; potency is the fitted concentration of half-maximal effect.

Values in the order – N370S GC mod | TDP1 inh
CC(O)CNc1nc(Cl)c(C#N)s1 (stereo unspecified)
 : -12% | 5%
O=c1ccnc(NCCc2ccccc2)[nH]1
 : 2% | 8%
Clc1ccccc1/C=N/Nc1cc(N2CCOCC2)ncn1
 : -1% | x
Cc1ccc(C(C)C)c(OCC(=O)Nc2ccc(Cl)cn2)c1
 : 8% | -2%
CSc1ccc(S(=O)(=O)NCc2ccccc2Cl)cc1
 : 11% | -2%
COc1ccc(N=C(C)c2sc3ccccc3c2O)cc1
 : 20% | 11%
CCCC[C@H]1COCCS(=O)(=O)N1Cc1ccc(F)cc1
 : 9% | x
NC(=O)C1CCN(Cc2nc(-c3ccccc3)no2)CC1
 : 5% | 3%
CC(C)CCNC(=O)NC(=O)CSc1ncccn1
 : -6% | -3%
Cc1ccc(Cl)cc1NC(=O)NCc1cccnc1
 : 1% | 1%[56.1 µM]
CN(C)CCNC(=O)/C(=C/c1ccc(-c2ccc(Cl)cc2Cl)o1)NC(=O)c1ccccc1
 : 5% | 0%
CCOc1cc(/C=C2/SC(=O)N(CC(=O)N3CCc4ccccc4C3)C2=O)ccc1OCC(=O)O
 : -20% | 6%
O=C(CC1NCCc2ccccc21)Nc1ccc(Cl)cc1 (stereo unspecified)
 : 0% | 0%
CCn1c(=O)cc(SCC(=O)Nc2ccc3c(c2)OCCO3)c2ccccc21
 : 15% | 3%
Cn1ccnc1-c1ccc(-c2nccn2C)cc1
 : 0% | 5%
COc1ccc(C2/C=C\CN(S(=O)(=O)c3cccs3)CC(=O)N2Cc2ccc(F)cc2)cc1 (stereo unspecified)
 : -4%&12% | 11%&-2%
CC(C)Nc1nc(SC(C)C(=O)Nc2ccccc2)nc(N(C)C)n1 (stereo unspecified)
 : u | 5%
COCCNC(=O)c1cccc2c1-c1ccccc1C2=O
 : -14% | x
COc1ccc(OC)c(NC(=O)N2CCCC(C)C2)c1 (stereo unspecified)
 : 5% | 0%
CSCC(C)N1CCC(n2nccc2NC(=O)CCc2ccccc2)CC1 (stereo unspecified)
 : 0% | x
COc1cccc(/C=N/c2nc3ccccc3n2C)c1O
 : -7% | 2%
CC1(CCc2ccccc2)NC(=O)N(CC(=O)Nc2ccccc2)C1=O (stereo unspecified)
 : 8% | x
O=C(NCc1cccs1)C1CCC(CNS(=O)(=O)c2cccs2)CC1 (stereo unspecified)
 : 0% | -1%
Cc1nn(-c2ccc(N3CCCCC3)nn2)c(C)c1CCC(=O)NCc1ccccc1F
 : x | 5%
O=C(Nc1cccc(-c2nnn(CC(=O)N3CCc4ccccc4C3)n2)c1)C1CCC1
 : -26% | 4%
O=C(CSc1nnnn1C1CCCC1)N1CCN(C(=O)c2ccco2)CC1
 : 24% | 2%
CCN(CC)CCN1C(=O)C(=O)/C(=C(/O)c2cnn(-c3ccccc3)c2C)C1c1cccnc1 (stereo unspecified)
 : 2% | -5%
CCc1cccc(NS(=O)(=O)c2ccc3c(c2)N(C)CCO3)c1
 : 6% | 8%
COc1ccc2c(c1OC)C(=O)N1C2SC[C@H]1C(=O)NC1CCCC1 (stereo partly specified)
 : 10% | 2%
CCN1CCN(C(c2ccccc2)c2nnnn2Cc2ccccc2)CC1 (stereo unspecified)
 : 7% | -2%

One compound at a time, as listed above.
O=C(NCc1cccs1)C1CCC(CNS(=O)(=O)c2cccs2)CC1 (stereo unspecified) is listed as N370S GC mod = 0%; TDP1 inh = -1%
CC(O)CNc1nc(Cl)c(C#N)s1 (stereo unspecified) is listed as N370S GC mod = -12%; TDP1 inh = 5%

Shown with values ahead of the structure: 4 of the compounds above
| N370S GC mod | TDP1 inh | SMILES |
| --- | --- | --- |
| -12% | 5% | CC(O)CNc1nc(Cl)c(C#N)s1 (stereo unspecified) |
| 2% | 8% | O=c1ccnc(NCCc2ccccc2)[nH]1 |
| -1% | x | Clc1ccccc1/C=N/Nc1cc(N2CCOCC2)ncn1 |
| 8% | -2% | Cc1ccc(C(C)C)c(OCC(=O)Nc2ccc(Cl)cn2)c1 |

Going on with the list.
Values in the order – N370S GC mod | TDP1 inh
CCOC(=O)c1c(S(=O)(=O)NCCc2cccs2)c(C)n(C)c1C
 : 4% | 3%
CCOC(=O)C1C(=O)NC(c2ccccc2)=NC1c1ccc(O)c(OC)c1 (stereo unspecified)
 : -3% | 5%
COc1ccc(OCCC(=O)N2CCOCC2)cc1
 : 8% | 0%
COc1ccccc1C(=O)Nc1c2c(nn1-c1ccc(Cl)cc1)CS(=O)(=O)C2
 : -4% | -1%
Cc1ccc(C)c(NC(=O)CSc2nc3ccccc3nc2N2CCOCC2)c1
 : -10% | 0%
CN(C)/C=N/NC(=O)c1ccccc1
 : 21% | 3%
O=C(Nc1ccc(Oc2cccnc2)cc1)c1ccc([N+](=O)[O-])cc1
 : -6% | 5%
O=C(CCCn1cnc([N+](=O)[O-])n1)Nc1cccc(Cl)c1Cl
 : -4% | 3%
Nc1ccc(Nc2nc(-c3cc4ccccc4oc3=O)cs2)cc1
 : -9% | 10%
COc1ccc2[nH]c(C(=O)N3CCCN(Cc4ccc(F)cc4)CC3)cc2c1
 : -10% | 7%
Cc1ccc(C(=O)N/C(=C/c2ccccc2)C(=O)NCc2ccncc2)cc1
 : -5% | 0%
CC(C)(CNC(=O)C1CCCC1)CNC(=O)C1CCCC1
 : 6% | -2%
CCC(=O)N1c2ccc(C)cc2C2=NNC(=S)NC21O (stereo unspecified)
 : -2% | 3%
Cc1ccc(C(=O)c2nc3c(n2O)CCCC3)cc1
 : 0% | 8%
COc1ccc(C2Nc3ccccc3C(=O)N2NS(=O)(=O)c2ccc(C)cc2)c(OC)c1 (stereo unspecified)
 : u | 3%
COc1cccc(-c2cc(C(=O)Nc3cccc(O)c3)no2)c1
 : 7% | 2%
COc1ccc(NC(=O)N(C2CCCCC2)C2CCN(C(C)C)CC2)c(OC)c1
 : -6% | 10%
COc1ccc(C(=O)NC(=S)Nc2ccc(S(=O)(=O)Nc3cc(OC)ncn3)cc2)cc1
 : 0% | 0%
Cc1ccc(S(=O)(=O)CC(=O)N2CCN(c3ccccc3F)CC2)cc1
 : 1% | 0%
COC(=O)c1cc(NC(=O)c2ccccc2)c(=O)oc1C/C=N\OCc1ccc(Cl)cc1Cl
 : -3% | 8%
COc1cccc(NC(=O)C2C3C=CC(O3)C2C(=O)O)c1 (stereo unspecified)
 : -5% | 4%
COc1ccc(/C=C(/NC(=O)c2ccco2)C(=O)NCCc2ccccc2)cc1
 : 14% | 3%
COc1cc(/C=C(\NC(=O)c2ccccc2)C(=O)NC(C(=O)O)c2ccccc2)cc(OC)c1OC (stereo unspecified)
 : -1% | x
CC(C)CC(=O)Nc1ccccc1N1CCCC1
 : 4% | 0%
Cc1ccc(NC(=S)NCc2cccnc2)cc1
 : 9% | 5%
O=C(Nc1ccccc1)Nc1ccccc1C(=O)NCCCN1CCOCC1
 : -1% | 0%
O=C(O)C(NS(=O)(=O)c1cccc2nsnc12)c1ccccc1 (stereo unspecified)
 : -21% | x
CC(OC(=O)C1=COCCO1)C(=O)Nc1ccc(Cl)cn1 (stereo unspecified)
 : -5% | 5%
COC(=O)c1ccc(CN2CCC(CO)(Cc3cccc(OC)c3)CC2)cc1
 : -2% | 1%
O=C(Nc1ccc2nsnc2c1)NC1CCCCC1
 : x | 1%
COc1ccccc1CNC(=O)C/C(C)=N/NC(=O)Cc1ccccc1
 : 0% | 5%
COc1cccc(C(=O)NCCOc2cc(C)cc(C)c2)c1
 : 12% | 1%
O=C(Nc1ccc(S(=O)(=O)N2CCCCC2c2cccnc2)cc1)c1ccccc1F (stereo unspecified)
 : 4% | -8%
CC(OC(=O)c1cccc(S(=O)(=O)N2CCCCC2)c1)C(=O)NC1CCCCC1C (stereo unspecified)
 : 0% | -2%
COc1ccc(/C=C(\C#N)C(=O)N=CN(C)C)cc1
 : -8% | -3%
O=C(Cc1c[nH]c2ccccc12)NCc1ccc2c(c1)OCO2
 : 0% | 8%
CCOC(=O)Cc1csc(NC(=O)C2C3C=CC(C3)C2C(=O)O)n1 (stereo unspecified)
 : 8% | 0%
C/C=C(\C)C(=O)NCCN1C2=NC[C@H](C(C)C)N2C[C@@H]1Cc1ccc(OC)cc1
 : -2% | 9%
CCOC(=O)c1sc2ncnc(N3CCN(C)CC3)c2c1C
 : 4% | 0%
O=C(CCS(=O)(=O)Cc1ccccc1)NCCc1ccccc1
 : 1% | 5%
O=C(CSc1nc2c(cnn2-c2ccc(F)cc2)c(=O)[nH]1)N1CCCCC1
 : 3% | 10%
CCC(CC)c1nnc(NC(=O)CCNC(=O)c2ccccc2Cl)s1
 : 12% | 2%
COc1ccccc1N1CCN(c2nccc(C)n2)CC1
 : -7% | x
CN(CC(=O)Nc1ccc(C#N)cc1)Cc1ccc(Cl)cc1Cl
 : u | 3%
COc1ccc2c(c1)C(C1=C(O)CC(C)(C)CC1=O)C1=C(CC(C)(C)CC1=O)O2 (stereo unspecified)
 : 12% | -5%
COc1ccc(C2=CC(c3ccco3)n3ncnc3N2)cc1 (stereo unspecified)
 : 4% | 5%
CN(C(=O)COC(=O)c1ccccc1C(=O)N1CCN(c2ccccc2)CC1)c1ccccc1
 : -1% | 6%
O=C(O)CCCC(=O)NNC(=O)c1cccc(Br)c1
 : -18% | 1%
COc1ccc(NC(=O)CN2C(=O)CSC(C)C2=O)c(OC)c1 (stereo unspecified)
 : 18% | 2%
CC(OC(=O)c1ccc(-n2cnnn2)cc1)C(=O)N(C)c1ccccc1 (stereo unspecified)
 : -15% | 1%
COc1cc(/C=C/CO)cc(OC)c1OC/C=C(\C)CCC=C(C)C
 : 8% | x
O=C(O)C1CSC2(c3ccc4c(c3)OCCO4)CCC(=O)N12 (stereo unspecified)
 : 2% | 10%
COc1ccc(NC(=O)c2cc(C)n(Cc3cccs3)c2C)cc1
 : 24% | 6%
CC/C(=N\NC(=O)C1CCCC1)c1ccc(Br)cc1
 : 1% | 4%
COCCCNC(=O)NC(=O)c1ccccc1
 : -18% | x
O=C(NCCCN1CCOCC1)c1cc(-c2ccc(F)cc2)no1
 : -4% | 5%
COc1ccc(OC)c(-n2c(C)cc(C=O)c2C)c1
 : -6% | 9%
CCn1c(=O)c2sccc2n2c(CCCC(=O)N3CCN(c4ccccn4)CC3)nnc12
 : -3% | 5%
CCC(=O)Nc1cccc(C2=NOC3(C2)C[C@@H](C(N)=O)N(C(=O)C(c2ccccc2)c2ccccc2)C3)c1 (stereo partly specified)
 : 11% | 2%
CCS(=O)(=O)N1CCN(Cc2ccc([N+](=O)[O-])cc2)CC1
 : 4% | 0%

Of the compounds above, 3 have a cyano group.
Values in the order – N370S GC mod | TDP1 inh
CC(O)CNc1nc(Cl)c(C#N)s1 (stereo unspecified)
 : -12% | 5%
COc1ccc(/C=C(\C#N)C(=O)N=CN(C)C)cc1
 : -8% | -3%
CN(CC(=O)Nc1ccc(C#N)cc1)Cc1ccc(Cl)cc1Cl
 : u | 3%

(list continues)
Values in the order – N370S GC mod | TDP1 inh
COC(=O)c1ccc(C(=O)OC)c(NS(C)(=O)=O)c1
 : 5% | 9%
COc1ccc(C)cc1S(=O)(=O)Nc1ccc2c(c1)OCCO2
 : 3% | x
O=S(=O)(NCC(c1ccco1)N1CCCCC1)c1ccccc1C(F)(F)F (stereo unspecified)
 : x | 2%
Cc1ccc(Nc2nc(Cl)nc(NC(C)(C)C)n2)cc1
 : -19% | -3%
Cc1ccc(NC(=O)CN(C)CC(=O)Nc2cccc(F)c2)cc1S(=O)(=O)N1CCCCCC1
 : 9% | -5%
C=CCOc1ccc(/C(CC)=N/O)cc1OC
 : -1% | 2%
CCCS(=O)(=O)c1ccc(COC(=O)c2ccc(NC(C)=O)cc2)cc1
 : 2% | 3%
Cc1ccc(CN(Cc2ccco2)C(=S)NCC(=O)NCc2cccnc2)cc1
 : 4% | 1%
CCOc1ccc(NC(=O)CN(C)C(=O)COc2cccc3c2OC(C)(C)C3)cc1OCC
 : x | 1%
CCOC(=O)Cc1csc(NC(=O)CC)n1
 : -4% | 0%
CC(=O)OC(C)(C)C1Cc2cc3ccc(=O)oc3cc2O1 (stereo unspecified)
 : u | -6%[56.1 µM]
Cc1ccc2c(c1)N(CC(=O)N1CCCC(C)C1)C(=O)CO2 (stereo unspecified)
 : -9% | x
COC(=O)c1ccc(SCC(=O)NC2CCCC2)c([N+](=O)[O-])c1
 : 0% | -2%
CNc1nnc(-c2ccc(C)cc2)c2ccccc12
 : -2% | 5%
Cc1ccc(Oc2ccc(-c3nc(N)nc(N)n3)cc2)cc1
 : -13% | 3%
N#CC1=C(N)OC2=C(C(=O)CCC2)C1c1ccoc1 (stereo unspecified)
 : 1% | 6%
Cc1nn(Cc2ccccc2)c(Cl)c1C(=O)NCc1ccc(C)n1C
 : -1% | 0%
Cc1ccc(NC2=C(Cl)C(=O)OC2OC(C)C)cc1 (stereo unspecified)
 : -6% | 0%
CCCn1c(N)c(N2CCCCC2)c(=O)n(CC(=O)Nc2ccc(OC(F)(F)F)cc2)c1=O
 : 3% | 4%

Some of the compounds tested, and most or all hits are left out here.
